Six1-Eya2 inh – blocks human Six1 binding to Eya2; AlphaScreen GST-Six1/His-Eya2 binding, biochemical; stronger effect = lower value; control for the full effect not named in the record; actives 0.56% (n = 360,000); AID 651725; activity change, % (no concentration beside the values); in the data active = activity change below about -65%; inconclusive = about -30% to -65%; inactive = above about -30%; note: % is set by controls: 0 for no effect and ±100 for the full control effect; compound concentration not given in the record
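AlphaScreen luminescence read after one hour at 37 °C in darkness. Pin-transferred compounds met GST-Six1 and His-Eya2 protein (5X stock 250 nM/500 nM) plus glutathione donor and Ni-chelate acceptor beads (5X, 50 ug/mL).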
CtBP-E1A inh – inhibitors of CtBP/E1A interaction. AlphaScreen GST-E1A/His-CtBP binding, 1536-well; stronger effect = lower value; control for the full effect not named in the record. actives 0.49% (n = 340,000). activity change, % (test concentration not listed). AID 651724; in the data active means activity change below about -65%; inconclusive means about -30% to -65%; inactive means above about -30%; note: % is set by controls: 0 for no effect and ±100 for the full control effect; compound concentration not given in the record
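AlphaScreen with 125 nM GST-E1A and 125 nM His-CtBP (5X stocks) in Tris pH 8.0, 300 mM NaCl, BSA, Tween 20, TCEP. Compounds preincubated 2 h at 37 deg C, then glutathione donor/nickel acceptor beads added for 1 h at 37 deg C in dark.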
TRPML1 agonist – agonists of human TRPML1 channel | Q9GZU1 | TRPML1-expressing cells, Ca2+ dye fluorescence, FDSS; host cell line not named in the record; reference of the full effect not given here | activation, % (no concentration beside the values) | actives 0.12% (n = 410,000) | AID 624414; in the data active = activation above about 50%; inconclusive = about 30% to 50%; inactive = below about 30%; note: 0% is about no effect; the text of the record puts the active cut at 80%
Target sequence (Q9GZU1 whole entry, looked up): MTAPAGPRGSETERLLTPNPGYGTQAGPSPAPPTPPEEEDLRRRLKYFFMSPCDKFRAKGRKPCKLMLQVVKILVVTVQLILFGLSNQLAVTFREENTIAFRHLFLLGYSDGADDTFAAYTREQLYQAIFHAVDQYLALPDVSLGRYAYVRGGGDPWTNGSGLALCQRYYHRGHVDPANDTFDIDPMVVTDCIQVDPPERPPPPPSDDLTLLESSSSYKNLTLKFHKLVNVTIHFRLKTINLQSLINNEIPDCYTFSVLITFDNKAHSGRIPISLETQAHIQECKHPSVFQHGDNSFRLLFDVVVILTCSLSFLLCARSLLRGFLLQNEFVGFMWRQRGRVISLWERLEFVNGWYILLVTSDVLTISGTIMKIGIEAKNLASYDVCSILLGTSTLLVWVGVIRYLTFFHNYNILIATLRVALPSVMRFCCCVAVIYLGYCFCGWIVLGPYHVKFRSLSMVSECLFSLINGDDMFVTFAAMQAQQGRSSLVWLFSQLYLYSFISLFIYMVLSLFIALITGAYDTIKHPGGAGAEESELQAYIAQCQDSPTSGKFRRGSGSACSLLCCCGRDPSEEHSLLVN
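Cells: TRPML1-DL, 1X Tet inducer, ~16 h at 37 degrees C/5% CO2. Dye: ABD Ca8 no-wash + quencher, 45-90 min RT. Read: 10 s baseline, compound add, 110 s agonist phase; 54-4 EC80 (4uM final), 110 s antagonist phase.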
PINK1 modulator – changes PINK1 expression; actives 0.2% (n = 410,000); AID 624263; PINK1 immunofluorescence, high-content cytometry, 24 h; Potency, µM (doses to about 76.6 µM), inactives show at the highest dose activation (PINK1 increase), usual class: activators; active = well fitted activation curve with a large enough effect; inconclusive = small, poorly fitted or top-dose-only effect; inactive = flat fitted curve, though single readings scatter; cell line not stated here;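 note: potency is the fitted concentration of half-maximal effect; % of control where 0% means no effect; nearly all actives have a fitted effect of over 65% in size; a mitochondrial uncoupler was the plate control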
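Stable cell line, 250 cells/well, 12 h attachment; compounds pinned at 5 concentrations, 24 h; CCCP control. Fixed with nuclear dye, primary antibodies 12 h at 10 degrees C, secondary plus cell stain; laser-scanning cytometer read.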
D2 potentiator – positive allosteric modulators of human D2 dopamine receptor. actives 0.23% (n = 360,000). AID 624464. DiscoveRx D2 beta-arrestin cells, luminescence, 90 min; 100% = 57 uM dopamine signal. potentiation, % (no concentration beside the values); active = potentiation of 50% or more; inconclusive = 30% to 50%; inactive = 30% or less;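 note: compound concentration not given in the record; tested on top of an EC20 dose of dopamine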
Target sequence (P14416 whole entry, looked up): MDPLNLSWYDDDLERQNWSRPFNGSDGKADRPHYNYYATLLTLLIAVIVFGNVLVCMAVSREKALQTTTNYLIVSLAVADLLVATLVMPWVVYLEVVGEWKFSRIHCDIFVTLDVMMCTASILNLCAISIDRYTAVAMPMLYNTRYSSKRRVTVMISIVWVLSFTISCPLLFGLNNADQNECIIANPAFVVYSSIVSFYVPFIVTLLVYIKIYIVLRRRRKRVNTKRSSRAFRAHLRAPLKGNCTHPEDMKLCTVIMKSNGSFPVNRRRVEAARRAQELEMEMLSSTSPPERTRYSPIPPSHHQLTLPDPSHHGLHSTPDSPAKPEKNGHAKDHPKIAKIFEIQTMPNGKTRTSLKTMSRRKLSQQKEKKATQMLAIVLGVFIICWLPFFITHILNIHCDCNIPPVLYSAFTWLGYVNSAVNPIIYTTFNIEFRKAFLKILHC
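D2 cells co-treated with compound plus 50 nM dopamine (EC20) for 90 min at 37 deg C to detect potentiation. Beta-arrestin recruitment was read as enzyme-fragment luminescence after 1 h at ambient temperature. Full response was set by 57 uM dopamine.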
D2 ag – activates the human D2 dopamine receptor; DiscoveRx PathHunter D2 beta-arrestin, luminescence, 90 min; 100% = 57 uM dopamine signal; activation, % (concentration not given with the values); actives 0.084% (n = 360,000); AID 624465; in the data active = activation above about 40%; inconclusive = about 15% to 40%; inactive = below about 15%; note: compound concentration not given in the record; the text of the record calls up to 30% inactive
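DiscoveRx PathHunter D2 beta-arrestin cells (2,100/well) attached overnight, then compound-stimulated 90 min at 37 C in HBSS/10 mM HEPES/0.1% Tween-20 buffer; beta-galactosidase complementation read by luminescence after 1 h at ambient temperature. Dopamine 57 uM final (EC100) as control.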
* hit, by the source's call; ? = inconclusive; nt = no result given; & = joins results of further samples; [ ] = another dose, or the depositor's remark. Compounds were not picked by outcome; any-hit rate near 1.3%.

molecule	Six1-Eya2 inh	CtBP-E1A inh	TRPML1 agonist	PINK1 modulator	D2 potentiator	D2 ag
O=C(COC(=O)CCC(=O)c1cccs1)NC(=O)c1ccc(OC(F)F)cc1	8	nt	-1.1	0.7%	0	-0.5
CC(C)Nc1nc(NC(C)C)nc(SCCOC(=O)Nc2ccc(Cl)cc2Cl)n1	-4	1	0.4	10%	-10	-3.9
CCC1(c2ccccc2)NC(=O)N(CC(=O)NNC(=O)c2ccc(F)cc2)C1=O (stereo unspecified)	-1	4	-1.1	5.0%	7	-2.7
CCCCOCP(=O)(CC)COCCCC	5	-1	-0.4	6.4%	-12	-4.7
O=C(CNC(=O)c1ccc(OC(F)F)cc1)NCc1ccccn1	5	-5	-0.3	-1.5%	-4	-1.6
Cc1cc(C)[n+]2n1C(=O)C(c1ccccc1)=C2[O-]	-9&-8	-19&-8	-0.3&-0.7	2.8%&2.9%	-8&-14	-5.7&-1.8
COc1ccc(-n2nc(C(=O)NCC(=O)NCc3ccc(F)cc3)c3ccccc3c2=O)c(OC)c1	4	6	-0.1	1.6%	-9	-3.6
O=C(N/N=C/c1cccs1)/C(=C/c1ccccc1)NC(=O)c1ccccc1	-11	-3	-0.7	1.0%	-6	-2.4
CC(C)NC(=O)C1CCN(C2CCN(C(=O)c3scc4c3CCCC4)CC2)CC1	-4	1	0.1	-1.0%	-7	-2.8
COC(=O)CCCCCc1ccc(C(C)=O)s1	9	13	0.2	-0.8%	-13	0.3
Cc1csc(SCC(=O)Nc2cc(C(C)(C)C)nn2-c2ccccc2)n1	0	-1	3.9	-1.4%	6	-0.6
O=C(O)c1cccc(COc2ccc3c(c2)CCC3)c1	-1	-2	-0.4	2.5%	0	-0.2
Cc1ccc(C2=[N+]([O-])C3(CCCCC3=O)N(O)C2(C)C)cc1 (stereo unspecified)	14	1	1.5	-0.7%	-18	-2.8
CCNC(=S)NNC(=O)c1cccnc1	4	6	-0.3	4.0%[38.3 µM]	2	-1.8
CC(C#N)Sc1ncnc2sc3c(c12)CCC3 (stereo unspecified)	3	10	1.8	nt	0	0.3
O=C1C2C3CC(C2C(=O)N1c1cccc(Cl)c1)[C@H](O)C3O (stereo partly specified)	3	7	4.2	-1.2%	-1	0.2
C[C@H]1CN([C@@H](C)CO)C(=O)CCCn2nncc2CO[C@@H]1CN(C)C(=O)c1ccncc1	23	4	19	1.2%	10	-3.4
CCC(c1nnnn1C1CCCCC1)N1CCN(C2CCCC2)CC1 (stereo unspecified)	1	2	-1.2	0.3%	-6	-2.3
CCCCCCCCN1C(=O)[C@H](CC(=O)NCC23CC4CC(CC(C4)C2)C3)C[C@@]2(C(=O)OC)CCCCC=C12	0	1	0.2	8.4%	nt	nt
CCN1C(=O)C2(C(C#N)=C(N)Oc3c2c(C)nn3-c2ccccc2)c2ccccc21 (stereo unspecified)	0	6	1.7	22%[38.3 µM]	?	7.5
Cc1ccc(CCNC(=O)C2CCN(S(=O)(=O)c3ccc4nc5c(c(C(=O)O)c4c3)CCCC5)CC2)cc1	4	4	0.1	1.6%	-2	1.5
Cc1c(NC(=O)CSc2nncn2-c2ccccc2)c(=O)n(-c2ccccc2)n1C	10	-19	-0.8	-0.8%	-13	-2.1
CC(C)(C)C(=O)Nc1ccc(N2CCCC2)cc1	-8	-4	-0.6	-1.6%	2	-1.9
COc1ccc(CCNS(=O)(=O)c2ccc3c(c2)n(C)c(=O)c(=O)n3C)cc1OC	2	3	-0.2	-0.3%	-4	-2.5
N#CCn1cc(/C=N/NC(=O)c2cc3c(ccc4ccccc43)o2)c2ccccc21	3	-5	0.8	0.9%	-7	14
O=C1NC[C@H](CCCCN2C[C@H](Cc3ccc(O)cc3)N(CC3CCCCC3)C(=O)C2=O)N(CC2CCCCC2)C1=O	6	-3	-0.5	-0.3%	nt	nt
N#C/C(=N\Nc1ccc(Cl)cc1)C(=N)N1CCCCCC1	0	nt	0.1	-1.6%	-16	-7.0
COc1ccccc1/C=N/n1nnnc1N	-11	0	-0.6	0.2%	1	-2.0
CC(C)c1cc(C(=O)N2CCCC(Nc3ccc(F)c(F)c3)C2)nc(N)n1 (stereo unspecified)	3	3	0.8	-1.0%	2	0.3
O=C(CCc1nnc(CCCc2ccccc2)o1)NCC(F)(F)F	-4	nt	0.6	-0.7%	-5	5.7

Going on with the list.
molecule	Six1-Eya2 inh	CtBP-E1A inh	TRPML1 agonist	PINK1 modulator	D2 potentiator	D2 ag
CC1Cc2ccccc2N1C(=O)COC(=O)CSc1ccc(F)cc1 (stereo unspecified)	4	20	-0.1	-1.7%	8	-4.7
CSc1nnc(-c2ccc(F)cc2)o1	3	13	-0.6	0.5%[38.3 µM]	-14	-0.8
COc1ccc(NC(=O)c2cc([N+](=O)[O-])ccc2N2CCN(C)CC2)cc1	17	0	0.5	0.3%	-6	-4.9
O=C(Nc1nc2ccccc2s1)c1ccc(OCC2CCCO2)cc1 (stereo unspecified)	-13	-9	-0.3	11%	5	12
O=C(Cn1cnnn1)NCc1ccccc1	12	-5	?	3.9%	-2	2.5
CCn1c(COc2ccc(C)cc2)nnc1SCC(=O)Nc1ccc(S(N)(=O)=O)cc1	-11	0	-0.3	-1.0%	-17	1.0
CCOC(=O)NC(=O)/C(C#N)=C/c1ccc(N(C)C)cc1	1	2	7.2	-0.5%	-3	-0.9
COc1ccc(C(O)c2ncc(-c3ccccc3)[nH]2)c(OC)c1 (stereo unspecified)	-4	2	-1.0	0.4%	-10	2.0
COC(=O)C1CCN(C(=O)COC(=O)c2ccc3[nH]c4c(c3c2)CCCC4)CC1	-13	-4	-1.2	9.1%	11	4.7
CC(NC(=O)c1ccc(-c2cc(C(F)(F)F)ccc2Cl)o1)c1ccccc1 (stereo unspecified)	2	4	0.6	22%[38.3 µM]	-14	-0.8
Cc1cccc(NC(=O)CNC(=O)N2CC(=O)Nc3ccccc32)c1C	2	-7	0.9	-1.5%	-16	5.6
O=S(=O)(Nc1ncn[nH]1)c1ccc(Cl)cc1	12	13	0.6	0.3%	1	0.5
COc1ccc(CCNC(=O)COc2ccc(S(=O)(=O)NCC(C)C)cc2Cl)cc1OC	5	-8	-0.7	3.5%	-2	-3.2
O=C(CN1C(=O)c2ccccc2S1(=O)=O)NC1CC2CCC1C2 (stereo unspecified)	3	7	-0.1	1.8%	-6	-3.3
Nc1ccc(CN2CCOCC2)cc1	3	4	0.2	-0.3%	-9	-5.9
COc1ccc(CNC(=O)C2CCN(S(=O)(=O)c3cccc(C(F)(F)F)c3)CC2)cc1	1	-5	0.8	15%	11	3.9
COc1cc(/C=C/C(=O)OCC(=O)NC(=O)NCc2ccco2)ccc1OC(F)F	-8	1	1.5	14%	15	-1.3
Cc1ccc(S(=O)(=O)C(CCC(=O)c2ccc(Cl)cc2)C(N)=O)cc1 (stereo unspecified)	1	3	0.3	nt	2	-2.1
CCOC(=O)CCn1nc(-c2ccc(C)cc2)c2ccccc2c1=O	7	0	2.5&3.5	0.2%&0.1%	-13	-2.7
COc1cc(C(=O)NC(C)Cc2cccs2)cc(OC)c1OC (stereo unspecified)	4	-4	-0.3	0.8%	1	3.6
NS(=O)(=O)c1ccc(NC(=O)c2cc(=O)c3ccccc3o2)cc1	-1	0	-0.3	-2.2%	-5	-1.2
Cc1occc1C(=O)N/N=C/c1c(O)ccc2ccccc12	-23	-28	1.2	9.2%	-6	3.6
CCCCCCCOc1ccc(OC(=O)c2ccncc2)cc1	4	7	-0.5	nt	1	-3.1
CCC1Sc2ccc(S(=O)(=O)CCC(=O)N3CCc4ccccc43)cc2NC1=O (stereo unspecified)	6	-4	0.3	-0.1%	-10	4.1
Cc1c(NC(=O)c2ccc(S(=O)(=O)N3CCOCC3)cc2)cccc1[N+](=O)[O-]	-11	-2	0.8	0.9%	1	-0.9
Cc1cc(=O)oc(C)c1C(=O)Nc1ccc(F)cc1	-4	-11	1.8	0.0%	-5	-4.8
COc1ccc(NC(=O)C2CCN(S(=O)(=O)c3cccc4nonc34)CC2)cc1	-5	6	0.4	1.4%	-3	5.8
COc1cccc2c1OCC([C@@H]1C[C@H]3CN(Cc4cccc(Cl)c4)C(=O)[C@]34CCCN14)=C2	-4	-2	0.8	0.2%	-4	1.8
COc1ccc2c(c1)OC(O)(C(F)F)CC2=O (stereo unspecified)	0	0	-0.3	3.2%[38.3 µM]	-10	-3.8
C=CCNC(=S)NNC(=O)CCC(O)COCCC(C)C (stereo unspecified)	-1	-14	0.1	3.7%	7	-1.0

Quoted at random: two entries already listed.
molecule	Six1-Eya2 inh	CtBP-E1A inh	TRPML1 agonist	PINK1 modulator	D2 potentiator	D2 ag
CCn1c(COc2ccc(C)cc2)nnc1SCC(=O)Nc1ccc(S(N)(=O)=O)cc1	-11	0	-0.3	-1.0%	-17	1.0
O=C(Nc1nc2ccccc2s1)c1ccc(OCC2CCCO2)cc1 (stereo unspecified)	-13	-9	-0.3	11%	5	12

Further records follow.
molecule	Six1-Eya2 inh	CtBP-E1A inh	TRPML1 agonist	PINK1 modulator	D2 potentiator	D2 ag
CCC(CC)C(=O)Oc1c(C(=O)N(C)C)cccc1-c1ccccc1	4	0	1.5	0.4%	-6	0.6
COc1ccccc1NS(=O)(=O)c1cc(C(=O)NCC(c2cccs2)N2CCOCC2)ccc1C (stereo unspecified)	6	0	0.1	3.7%	-10	-0.6
COCCn1c(SCC(=O)NC(=O)NC(C)C)nc2ccccc21	2	10	0.0	-1.8%	-17	1.7
CC(C)c1ccc(CC(=O)N2CCC2(C)C(=O)NCC(C)(C)C)cc1 (stereo unspecified)	-1	4	0.2	1.8%	-18	5.8
O=C(Nc1ccc(Cl)c(Cl)c1)Nc1ccc([N+](=O)[O-])cn1	-5	nt	0.0	4.9%	14	-3.2
O=[N+]([O-])c1cc(C(F)(F)F)cc([N+](=O)[O-])c1N1CCCNCC1	-16	-13	1.4	0.0%	10	4.8
COc1ccc(NC(=O)C2CCCN(S(=O)(=O)c3cccc4cccnc34)C2)cc1 (stereo unspecified)	15	0	1.8	-0.6%	3	3.1
O=C(Cc1ccccc1)N/N=C/c1ccc(OCC(=O)Nc2ccccc2)cc1	-1	0	0.3	1.7%	6	-0.7
COc1cccc(C(=O)O/N=C(\N)c2ccncc2)c1OC	5	26	-0.2	0.0%	?	?
COc1cccc(CNC(=O)C(=O)NCCC2CCCCN2S(=O)(=O)c2cccs2)c1 (stereo unspecified)	-3	8	1.9	0.9%	0	-0.1
COc1ccc(NC(=O)C(=O)NCCN2CCN(C(=O)C(c3ccccc3)c3ccccc3)CC2)cc1	-5	-7	1.1	-2.8%	-4	-2.5

Bioassay records: PubChem BioAssay, National Center for Advancing Translational Sciences (NCATS)
